NIH3T3 tox = Cytotoxic Profiling in NIH 3T3 Cell Line of Diverse Libraries Using Quantitative High-Throughput Screening. NIH 3T3 viability, CellTiter-Glo ATP luminescence, 48-72 h. Potency, µM (titrated, usually from 96.7 µM), without a hit: at the top dose activity change, negative = cytotoxicity, most hits filed as inhibitors. 4.3% of 94,000 active; note: nearly all actives have a fitted effect of over 55% in size
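Luminescent ATP readout (CellTiter-Glo, 10 min RT) after 48 or 72 hr compound exposure of NIH 3T3 cells seeded at 400 cells/well in 1536-well format; quantitative HTS.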
HEK cytotox = Cytotoxic Profiling in HEK 293 Cell Line of Diverse Libraries Using Quantitative High-Throughput Screening; HEK 293 viability, ATP luminescence (CellTiter-Glo), 48-72 h; Potency, µM (series often up to 115 µM), for the others: top-dose activity change, negative = cytotoxicity, hits mostly inhibitors; 6.6% of 94,000 active; note: nearly all actives have a fitted effect of over 60% in size
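Read-out: CellTiter-Glo ATP luminescence. Cells: HEK 293, 250 cells/well. Exposure: 48 or 72 hr, 37 degree Celsius.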
Luciferase inh = Firefly luciferase inhibition profiling of diverse chemical library using quantitative high-throughput screening; Potency, µM (top dose mostly 115 µM), for inactives: top-dose activity change, negative = inhibition, most hits filed as inhibitors; 2.5% of 76,000 active; AID 1347043, 2019; Luciferin 4-monooxygenase (Photinus pyralis), P08659; purified P. pyralis luciferase, luminescence, biochemical; note: nearly all actives have a fitted effect of over 65% in size
Target sequence (P08659 whole entry, looked up): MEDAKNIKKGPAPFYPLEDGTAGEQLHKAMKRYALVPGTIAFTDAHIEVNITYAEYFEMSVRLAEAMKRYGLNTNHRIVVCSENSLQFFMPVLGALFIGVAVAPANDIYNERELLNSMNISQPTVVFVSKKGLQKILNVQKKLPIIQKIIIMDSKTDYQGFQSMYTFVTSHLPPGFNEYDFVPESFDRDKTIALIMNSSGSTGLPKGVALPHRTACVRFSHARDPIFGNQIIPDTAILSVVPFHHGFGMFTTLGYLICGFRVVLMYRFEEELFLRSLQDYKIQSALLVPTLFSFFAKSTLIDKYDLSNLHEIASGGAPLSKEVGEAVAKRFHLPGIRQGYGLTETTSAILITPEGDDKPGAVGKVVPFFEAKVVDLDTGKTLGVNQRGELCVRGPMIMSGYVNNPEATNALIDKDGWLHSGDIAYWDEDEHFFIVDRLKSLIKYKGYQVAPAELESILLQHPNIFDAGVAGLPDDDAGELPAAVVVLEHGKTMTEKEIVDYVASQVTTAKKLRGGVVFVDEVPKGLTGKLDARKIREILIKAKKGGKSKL
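FLuc 10nM, D-luciferin 10uM, ATP 10uM, Mg acetate 10mM, Tris acetate pH 7.5, Tween/BSA; cpd qHTS; enzyme added last; CCD luminescence.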
HEK293 viab = GF-AFC viability counterscreen for inhibitors of alpha-synuclein gene (SNCA) expression | Potency, µM (highest dose often 57.1 µM), for the others: top-dose activity change, negative = cytotoxicity, usual class: cytotoxic | HEK-293-SNCA-luc viability, GF-AFC fluorescence, 24 h | 0.12% of 150,000 active;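 note: 0% = DMSO-treated cells and -100% = medium-only wells without cells; nearly all actives have a fitted effect of over 30% in size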
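Cytotoxicity counterscreen: after 24 h compound treatment of genome-edited SNCA-luciferase HEK-293 cells, live-cell protease substrate GF-AFC read by fluorescence after 30 min; activity scaled between DMSO (0%) and medium-only (-100%), curves Hill-fitted.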
SNCA expr inh = Primary qHTS assay for inhibitors of alpha-synuclein gene (SNCA) expression; HEK-293 SNCA-luciferase knock-in, luminescence, 24 h; Potency, µM (doses to about 57.2 µM), for inactives: at the highest dose activity change, negative = inhibition, most hits filed as inhibitors; 0.17% of 140,000 active; AID 1671194, 2021;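 note: plate controls were DMSO cells for no effect and cell-free wells for full effect; nearly all actives have a fitted effect of over 45% in size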
* = called active by the depositor; i = inactive; ? = inconclusive; . = not tested or not shown; & = joins results of further samples; [ ] = dose if it differs, or a comment. Calls come from the whole dose curve; as a rule, active = well fitted curve in the direction sought with a large enough effect; inconclusive = small, poorly fitted or top-dose-only effect, or another doubt; inactive = no such curve, though single readings can be large; an effect the other way counts as inactive or inconclusive. Unless noted, % is set by controls: 0 for no effect and ±100 for the full control effect; potency is the fitted concentration of half-maximal effect. Some of the compounds tested. The share of hits here may be higher or lower than overall.

Letter code: A = NIH3T3 tox; B = HEK cytotox; C = Luciferase inh; D = HEK293 viab; E = SNCA expr inh
(1) CCOCCCNC(=O)CCC1CCN(C(=O)c2ccccc2)CC1
  A: -10%; B: -8%; C: 0%; D: 11%; E: -21%

(2) COc1ccc2[nH]c(C(=O)N3CCC4(CC3)c3nc[nH]c3CCN4C)cc2c1
  A: -21%; B: -16%; C: -15%; D: 6%; E: 7%

(3) COc1ccccc1CCC(=O)Nc1cccn2nc(C(C)C)nc12
  A: -26%; B: ?; C: -3%; D: -18%; E: 8%

(4) Cc1cc(C(=O)N2CCCCCC2CN2CCC(C)CC2)nn1C (stereo unspecified)
  A: 4%; B: -11%; C: -5%; D: -1%; E: -1%

(5) O=C1CC(c2nc(-c3cn4ccccc4n3)no2)CN1Cc1ccncc1 (stereo unspecified)
  A: 1%; B: -15%; C: -8%; D: 6%; E: -7%

(6) CC(C)c1nc(C2Cc3ccccc3N2C(=O)NCc2ccco2)no1 (stereo unspecified)
  A: -22%; B: -4%; C: ?; D: 1%; E: 96%[activator]

(7) C#CCNC(=O)[C@H]1C[C@@H](O)[C@H](O)[C@@H]2N=C(Nc3cccc4ccccc34)S[C@@H]21
  A: ?; B: -17%[172 µM]; C: -12%[172 µM]; D: -12%[87.6 µM]; E: 8%[87.6 µM]

(8) CCCN(CCC)C(=O)C1COC2(CCC(C)CC2)N1C(=O)c1ccccc1F (stereo unspecified)
  A: -22%; B: -29%; C: -1%; D: -3%; E: -3%

(9) COc1cccc(-c2noc(-c3ccc(NCCCSC)nc3)n2)c1OC
  A: ?; B: ?; C: 25µM*; D: 2%; E: 29%

(10) CN(C)c1nc2c(c(=O)[nH]1)CCN(C(=O)CCc1ccccc1)CC2
  A: 1%; B: -6%; C: -7%; D: 2%; E: -9%

(11) CC(C)c1nc2c(NC(=O)Nc3cccc(Cl)c3)cccn2n1
  A: ?; B: ?; C: ?; D: -11%; E: -1%

(12) CC(=O)N1CCN(C(=O)c2ncoc2C2CC2)CC(O)C1 (stereo unspecified)
  A: 0%; B: -1%; C: -7%; D: 6%; E: -24%

(13) COc1ccc(CNc2ncnc3c2CN(c2ccc(Cl)cc2)C(=O)N(C)C3)cc1
  A: ?; B: -24%; C: 2%; D: -7%; E: ?

(14) COc1ccc(CCN2CCC(CN(C)C(=O)C3CCCCO3)CC2)cc1 (stereo unspecified)
  A: i; B: -5%; C: 4%; D: 5%; E: 13%

(15) NC(=O)CN1CCCC(c2nc(-c3cn4ccccc4n3)no2)C1 (stereo unspecified)
  A: -20%; B: 0%; C: -11%; D: -4%; E: 7%

(16) COCC(=O)N1CC[C@]2(O)CCN(C(=O)c3ccc(OC)o3)C[C@@H]2C1
  A: 0%; B: 2%; C: -1%; D: -6%; E: 9%

(17) COc1cccc(S(=O)(=O)N2CCC(c3noc(-c4ccccn4)n3)C2)c1 (stereo unspecified)
  A: -4%; B: 10%; C: 0%; D: 5%; E: 39%[activator]

(18) COc1cccc(S(=O)(=O)N2CCC(Cc3nncn3C)C2)c1 (stereo unspecified)
  A: -29%; B: -3%; C: -16%; D: 6%; E: 32%[activator]

(19) COCCCNC(=O)CCC1CCN(S(=O)(=O)c2ccccc2C)CC1
  A: -17%; B: -14%; C: .; D: 4%; E: 14%

(20) COc1ccc(F)cc1S(=O)(=O)N1CCn2c(nn(C)c2=O)C1
  A: i; B: 14%; C: 6%; D: 3%; E: -13%

(21) CCn1nc(CC(C)C)cc1C(=O)N1CCC2(CC1)CNC(=O)O2
  A: -7%; B: -15%; C: -1%; D: 8%; E: -4%

(22) COCCN1C(=O)C(CC(=O)NCCCn2cccn2)=C2CCCCC21 (stereo unspecified)
  A: 1%; B: i; C: 5%; D: -2%; E: -2%

(23) COCCn1c(C)cnc1CC1CCN(S(=O)(=O)c2cccc(OC)c2)C1 (stereo unspecified)
  A: -14%; B: ?; C: 7%; D: 3%; E: 1%

(24) CCC(=O)Nc1cc2c(cc1OC)C(c1ncnn1CC)CC(=O)N2 (stereo unspecified)
  A: -3%; B: -5%; C: 0%; D: 3%; E: 21%

(25) O=C(c1cc(F)ccc1Br)N1CCC(n2c(=O)[nH]c3ccccc32)CC1
  A: 3%; B: -9%; C: .; D: -5%; E: ?

(26) COc1cccc(-c2noc(-c3ccc(NCCn4cccn4)nc3)n2)c1OC
  A: ?; B: 22µM*; C: 16µM*; D: ?; E: 7%

(27) Cc1ccccc1CCN1CCC(CN(C(=O)c2cnn(C(C)C)c2)C2CCCC2)CC1
  A: ?; B: ?; C: 0%; D: -1%; E: 26%

(28) O=C(NC1CC1)c1ccnc2[nH]ccc12
  A: i; B: -3%[230 µM]; C: .; D: 3%[87.6 µM]; E: ?

(29) COc1ccc(CCN2CCC(CN(C)C(=O)c3ccccc3SC)CC2)cc1
  A: -36%; B: ?; C: -7%; D: 2%; E: 1%

(30) O=C(Nc1ccc(Cl)cc1Cl)c1ccnc2[nH]ccc12
  A: -36%; B: -24%; C: .; D: ?; E: -13%

9 structures from above, sorted by number of heavy atoms, ascending:
Letter code: A = NIH3T3 tox; B = HEK cytotox; C = Luciferase inh; D = HEK293 viab; E = SNCA expr inh
(28) O=C(NC1CC1)c1ccnc2[nH]ccc12
  A: i; B: -3%[230 µM]; C: .; D: 3%[87.6 µM]; E: ?

(30) O=C(Nc1ccc(Cl)cc1Cl)c1ccnc2[nH]ccc12
  A: -36%; B: -24%; C: .; D: ?; E: -13%

(20) COc1ccc(F)cc1S(=O)(=O)N1CCn2c(nn(C)c2=O)C1
  A: i; B: 14%; C: 6%; D: 3%; E: -13%

(21) CCn1nc(CC(C)C)cc1C(=O)N1CCC2(CC1)CNC(=O)O2
  A: -7%; B: -15%; C: -1%; D: 8%; E: -4%

(24) CCC(=O)Nc1cc2c(cc1OC)C(c1ncnn1CC)CC(=O)N2 (stereo unspecified)
  A: -3%; B: -5%; C: 0%; D: 3%; E: 21%

(25) O=C(c1cc(F)ccc1Br)N1CCC(n2c(=O)[nH]c3ccccc32)CC1
  A: 3%; B: -9%; C: .; D: -5%; E: ?

(17) COc1cccc(S(=O)(=O)N2CCC(c3noc(-c4ccccn4)n3)C2)c1 (stereo unspecified)
  A: -4%; B: 10%; C: 0%; D: 5%; E: 39%[activator]

(29) COc1ccc(CCN2CCC(CN(C)C(=O)c3ccccc3SC)CC2)cc1
  A: -36%; B: ?; C: -7%; D: 2%; E: 1%

(27) Cc1ccccc1CCN1CCC(CN(C(=O)c2cnn(C(C)C)c2)C2CCCC2)CC1
  A: ?; B: ?; C: 0%; D: -1%; E: 26%

Structural class, the entries above with a furan ring, fused or not.
Letter code: A = NIH3T3 tox; B = HEK cytotox; C = Luciferase inh; D = HEK293 viab; E = SNCA expr inh
(6) CC(C)c1nc(C2Cc3ccccc3N2C(=O)NCc2ccco2)no1 (stereo unspecified)
  A: -22%; B: -4%; C: ?; D: 1%; E: 96%[activator]

(16) COCC(=O)N1CC[C@]2(O)CCN(C(=O)c3ccc(OC)o3)C[C@@H]2C1
  A: 0%; B: 2%; C: -1%; D: -6%; E: 9%

Next part.
Letter code: A = NIH3T3 tox; B = HEK cytotox; C = Luciferase inh; D = HEK293 viab; E = SNCA expr inh
(31) O=C(CCC1CCN(C(=O)c2ccccc2)CC1)Nc1ccc(F)cc1
  A: -15%; B: -25%; C: 5%; D: -10%; E: -6%

(32) CSc1ccc(-c2nc(CN(C)Cc3cnccn3)c(C)o2)cc1
  A: -9%; B: -26%; C: -20%; D: -1%; E: 4%

(33) CCOc1c(CN(C)C(=O)Cn2cccc(OC)c2=O)cccc1OC
  A: -31%; B: ?; C: -16%; D: -8%; E: -3%

(34) CC(C)N1CC2CCC(C1)N2C(=O)c1ccc2c(c1)OCO2
  A: i; B: -29%; C: .; D: -5%; E: -14%

(35) CCn1nc(CC(C)C)cc1C(=O)N1CCN(S(=O)(=O)CC)CC1
  A: 0%; B: -7%; C: -6%; D: -2%; E: -15%

(36) CNC(=O)[C@@H]1CNC[C@H]1c1n[nH]c(C)n1
  A: 2%; B: 4%; C: 0%; D: -1%; E: 12%

(37) Cc1ccc2c(c1)C(=O)[C@]1(O)CCN(c3ccccc3)C1=N2
  A: .; B: .; C: .; D: -7%&-8%; E: -13%

(38) CC(C)C1=NOC2(CCN([S+](=O)([O-])c3ccccc3)C2)C1 (stereo unspecified)
  A: 3%; B: 4%; C: .; D: 2%; E: -22%

(39) CC(=O)Nc1ccc(C(=O)N2C3CCC2CN(C(C)C)C3)cc1
  A: i; B: i; C: .; D: -7%; E: -9%

(40) COCCN1C(=O)C(CC(N)=O)=C2CCCCC21 (stereo unspecified)
  A: 3%; B: -3%; C: -3%; D: 18%; E: -1%

Bioassay records as filed in PubChem.
